# NPYLR7 ag – activates Aedes aegypti NPYLR7 receptor. HEK293T NPYLR7/Galpha15, GCaMP6s calcium fluorescence. activation, % at 10 µM. actives 0.15% (n = 270,000); in the data active = activation above about 40%;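 note: 0% = vehicle and 100% = reference agonist at the receptor; some compounds past the cut are filed as inactive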
# NPYLR7 ag max-min – further read-out of NPYLR7 ag, marked with its call; activation, %; measured here: Max-Min RFU normalised activation; some inactives read as strong as hits;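 span of the calcium signal over five minutes; 0% = vehicle and 100% = native peptide agonist; compound fluorescence can raise it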
# * hit, by the source's call; & = joins results of further samples. This is a subset; count on the stated rates, not on these rows.
# Below each compound: NPYLR7 ag | NPYLR7 ag max-min
> CC1(O)OC2(C)CCC1(C)OC2(C)O (stereo not drawn)
→ 0 | 41
> COc1ccc2nc(NC(=O)N(C)Cc3ccc4c(c3)OCCO4)sc2c1
→ 6 | 5
> CSc1ccc(/C=N\NC(=O)c2cc(-c3ccccc3)nc3ccccc23)cc1
→ 0 | -3
> CSc1ccc(CNC(=O)CSc2cc(-n3nc(C)cc3C)ncn2)cc1
→ -7 | -10
> CCOC(=O)c1ccc2c(c1)nc(SCc1ccc(/C=C/c3ccccc3)cc1)n2Cc1ccccn1
→ 5 | -2
> CNC(=O)Cn1c(CO)cnc1SCC(=O)Nc1ccc(C(N)=O)cc1
→ 8 | 8
> Cc1ccccc1NC(=O)N1CCc2nc(-c3ccccc3)nc(N3CCCC3)c2C1
→ -3 | -16
> O=C(c1cccc(Cn2cccn2)c1)N1CCC2(CC1)C(=O)Nc1ccccc12
→ 0 | -3
> CC1(C(=O)Nc2cccc(Oc3ccccc3)c2)CCN1Cc1cccc2c1OCO2 (stereo not drawn)
→ 6 | -2
> CNc1nc(C)c(C(=O)N(Cc2ccsc2)CC2CCCO2)s1 (stereo not drawn)
→ 10 | 6
> O=C1Nc2ccccc2C12CCCN(c1nc(-c3ccccc3)no1)C2 (stereo not drawn)
→ -5 | -5
> Cc1ccc(Sc2ncccc2C(F)(F)F)cc1
→ 4 | 8
> c1csc(-c2nnc(SCc3nc(-c4ccsc4)no3)n2C2CC2)c1
→ 4 | 12
> O=C(NCC1CC2c3ccccc3C1c1ccccc12)N1CCOCC1 (stereo not drawn)
→ 2 | 1
> CC(C)CN(CC(C)C)C(=O)C1CCC(CNc2c(N3CCCC3)c(=O)c2=O)CC1 (stereo not drawn)
→ 5 | 1
> COc1cncc(-c2ccc(-n3cccn3)cc2)c1
→ 24 | 5
> C=CCN(CC(=O)N1CCc2sccc2C1COc1ccccc1F)C(=O)c1cccc(C)c1 (stereo not drawn)
→ -5 | 9
> O=[N+]([O-])c1ccc(N/N=C\c2c(-c3ccccc3)nc3ccccn23)c([N+](=O)[O-])c1
→ -1 | -5
> Cc1ccc(CN(CC(O)COc2ccccc2)CC2CCCO2)c(C)c1 (stereo not drawn)
→ 32 | 26
> CC(C)n1nc(C(=O)OCC(=O)N2CC(=O)Nc3ccccc32)c2ccccc2c1=O
→ -11 | -13
> CCN(Cc1ccccc1OCC(C)C)CC(C)C#N (stereo not drawn)
→ 8 | 6
> O=C(c1ccc(CN(CC2CCOC2)C2CC2)cc1)N1CCCC1 (stereo not drawn)
→ 1 | 0
> Cc1noc(C)c1CSCc1nnc(-c2ccc(F)cc2)o1
→ 5 | -1
> Cc1cn2c(nc3c2c(=O)n(Cc2ccc(F)cc2)c(=O)n3C)[nH]1
→ -6 | -7
> COc1ccc(OC)c(CC(=O)N[C@H]2C[C@H]3CN(C)CCN3C2)c1
→ -1 | -2
> Cc1ccc(S(=O)(=O)N2CCN(CC(=O)OC(C)(C)C)CC2)s1
→ 4 | 0
> CCCNC(=O)C1CN(C(=O)Cn2cnc3sc(C)c(C)c3c2=O)c2ccccc2O1 (stereo not drawn)
→ 14 | 9
> c1cc(C2CCCC2)nc(NCCC2CCOC2)n1 (stereo not drawn)
→ 8 | 6
> O=C(O)c1c[nH]c2ccccc2c1=O
→ -4 | -6
> CN(C)c1ccc(N)cc1CN(C(=O)c1ccccc1Cl)C1CC1
→ -2 | -4
> Cc1ccc2oc(-c3cc(NC(=O)c4cccs4)ccc3Cl)nc2c1
→ -1 | 13
> Cc1cc2ccccc2n1CCC(=O)N(C)CCc1ccccn1
→ 6 | 3
> Cc1oc(C)c(-c2ccc(Cl)cc2)c1C(=O)Nc1ccc(-c2ccccc2)cc1
→ 12 | 2
> Cc1ccccc1C1=NC(C(F)(F)F)(C(F)(F)F)N=C2C=CC=CN21
→ 9 | 2
> Cc1ccc(Cc2nnc(NS(=O)(=O)c3cccnc3)s2)cc1
→ -8 | 602
> Cc1nc(Cl)c2c(n1)N(CC(N)=O)C(=O)CO2
→ -1 | -3
> Cc1cc(F)cc2[nH]c(C(=O)NCCc3nccn3C(F)F)cc12
→ 7 | 7
> Cc1cc(C(=O)NCCN2CCCC(O)C2)c(NC(=O)C(C)(C)C)s1 (stereo not drawn)
→ 10 | 10
> Cc1ccc2oc(C(=O)NCC3COc4ccccc4O3)c(C)c2c1 (stereo not drawn)
→ 16 | 6
> c1cncc(CN2CCOC(CC3CCCCC3)C2)c1 (stereo not drawn)
→ 2 | -11
> CC(N)=C(C#N)C(=O)CSc1nnc(N)s1
→ 5 | 10
> CC(=O)[C@H]1CCC2C3CC=C4C[C@@H](OS(=O)(=O)O)CC[C@]4(C)C3CC[C@@]21C (stereo partly drawn)
→ -3 | 23
> O=C(CN1CCCN(C(=O)C2CCCO2)CC1)Nc1nc2ccccc2[nH]1 (stereo not drawn)
→ 10 | 6
> CC(c1ccc(Cl)cc1)N(Cc1cc(C#N)ccc1F)C1CC1 (stereo not drawn)
→ 3 | 3
> CCOc1cc(C(=O)OCn2nnc3ccccc3c2=O)cc(Br)c1OC
→ 0 | -2
> O=C(Nc1ccccc1)C(=O)c1ccc(C2CCCCC2)cc1
→ -10 | -18
> Cc1cccc(N=c2scc(C)n2N2CCOCC2)c1C
→ -5 | -8
> Cc1ccccc1C(=O)Oc1coc(CSc2ncccn2)cc1=O
→ -14 | -13
> CC(C)(C)c1ccc(C(=O)N2CCC2(C)C(=O)NCc2ccc3c(c2)OCO3)cc1 (stereo not drawn)
→ 10 | 8
> COc1ccc(-c2cc3c(nn2)Nc2ccccc2S3)cc1
→ 12 | 5
> CC(NCc1c(C(C)C)nn(C)c1N1CCOCC1)C(=O)N(C)C (stereo not drawn)
→ 5 | -1
> O=C(Nc1cccc(-c2ccco2)c1)C1CCN(C(=O)C2CCOCC2)CC1
→ 12 | 2
> CN(CCC#N)C(=O)c1cc2c(=O)n3ccccc3nc2n1C
→ -1&1 | -1&-2
> Cc1cc(=O)[nH]c2ccc(S(=O)(=O)N3CCC4(CCCO4)CC3)cc12
→ 7 | 6
> O=C(Oc1cccc(-c2nc3ccc(Br)cn3c2NC2CCCCC2)c1)c1ccco1
→ 7 | 15
> Cc1nn(-c2ccccc2)nc1C(=O)NNC(=O)c1ccc2c(c1)OCO2
→ 4 | 1
> Cc1nc(C)c(Cc2ccccc2F)c(N2CCN(C(=O)c3ccco3)CC2)n1
→ 10 | 8
> Cc1cn2c3c(=O)n(C)c(=O)n(C)c3nc2n1-c1cccc(Cl)c1
→ 22 | 9
> O=C(Nc1ccc(Br)cc1Br)c1ccc(CN2CCSCC2)cc1
→ 14 | 10
> COc1ccc(/C=C/C(=O)Nn2cnc3c(cnn3C(C)(C)C)c2=O)cc1OC
→ 4 | 3

# The listing continues:
# Below each compound: NPYLR7 ag | NPYLR7 ag max-min
> CCNC(=O)[C@H]1CC[C@@](C)(C(=O)NCc2cc(C(C)(C)C)n[nH]2)C1(C)C
→ 30 | 19
> CSc1ccc(C(=O)N2CC(=O)N(Cc3ccccc3)CC(C)(C)C2)cc1
→ 3 | 14
> CN(C)c1cccc(-c2ccc3c(c2)C(C)(Cc2cccc(C(F)(F)F)c2)C(=O)N3)c1 (stereo not drawn)
→ 1 | 4
> CC(C)CCCC1CN(S(=O)(=O)c2cccnc2)CCO1 (stereo not drawn)
→ 0 | -7
> COC(=O)/C(=C/C(=O)c1ccc(Cl)cc1)Nc1ccc(Br)cc1
→ 0 | -2
> CN(C)c1ccc(/C=C2/OC(=S)NC2=S)cc1
→ 9 | 4
> CC(NC(=O)c1ccc(C(C)(C)C)cc1)C(=O)N1CCC(C(=O)c2ccccc2)CC1 (stereo not drawn)
→ -7 | -9
> COc1cc(C=NNC(=O)c2n[nH]c3c2CCC3)cc(OC)c1OC
→ -4 | -1
> Cc1ccccc1-c1nc(CN2CCC[C@H]2C(N)=O)c(C)o1
→ 20 | 19
> CC(C)C1C(=O)NCCN1CC1CCC1 (stereo not drawn)
→ 15 | 10
> CC1(C)CCCC1NC(=O)c1cc(Cl)c2c(c1)OCCCO2 (stereo not drawn)
→ 9 | 4
> CCn1ccc(C(=O)N(Cc2cccnc2)c2nc3ccc(F)cc3s2)n1
→ 2 | -1
> CCCCOc1ccc(-c2cc3c(=O)n(CC(=O)Nc4ccc5c(c4)OCO5)ccn3n2)cc1
→ 6 | 5
> Cc1nccn1CC1CCCN(Cc2cnn(C)c2C2CC2)C1 (stereo not drawn)
→ 1 | 5
> CCOC(=O)c1ccc(Nc2nc(-c3cc4ccccc4oc3=O)cs2)cc1
→ 4 | 3
> O=C(NCc1n[nH]c2c1CCCCC2)c1cn(CC2CCCO2)nn1 (stereo not drawn)
→ 4 | -3
> C#CCn1c(=NC(=O)c2cc(C)no2)sc2cccc(F)c21
→ 7 | 10
> COc1ccc(CCN(Cc2ccc(C)o2)C(=O)CN(C(=O)C2CCC2)C2CC2)cc1OC
→ -3 | 2
> COc1cc(OC)cc(C(=O)Nc2ccc(C3SCC(=O)N3c3ccc(F)cc3F)cc2)c1 (stereo not drawn)
→ -7 | -5
> CCCCC(C(=O)O)N1C(=O)C2CC=C(Cl)CC2C1=O (stereo not drawn)
→ 4 | 3
> CCCNCc1cccc(-c2ccc(C(N)=O)cc2)c1
→ -8 | -11
> Cc1cccc(COC2CCCN(C(=O)c3cccs3)C2)c1 (stereo not drawn)
→ 0 | 10
> CC(C)CN(CC(=O)N(Cc1cccn1Cc1ccccc1)C1CCCCC1)S(=O)(=O)c1ccc(Br)cc1
→ -4 | 3
> Cc1ccn2c(NC3CCCCC3)c(-c3ccc(OC(=O)c4ccccc4C)cc3)nc2c1
→ 28&-8 | 25&-6
> O=C1CON=C(Cc2ccccc2)N1Cc1cccc(F)c1
→ 8 | 5
> c1coc(-c2nnc(Sc3ncnc4c3oc3ccccc34)o2)c1
→ -3 | -6
> O=C(CCS(=O)(=O)c1ccccc1)N(Cc1cccnc1)c1nc2c(F)cccc2s1
→ -10 | -10
> C=CCNCc1cc(Br)ccc1OCC(N)=O
→ 10 | 17
> CN(Cc1nc(-c2ccc(C(F)(F)F)cc2)no1)CC(O)c1ccccc1 (stereo not drawn)
→ 0 | -2
> NC(=O)c1cnc(N[C@@H]2CCCC[C@@H]2N)nc1Nc1cccc(-n2nccn2)c1
→ 0 | -9

# A draw from above in order of heavy-atom count, high to low:
# Below each compound: NPYLR7 ag | NPYLR7 ag max-min
> CCNC(=O)[C@H]1CC[C@@](C)(C(=O)NCc2cc(C(C)(C)C)n[nH]2)C1(C)C
→ 30 | 19
> COc1cc(C=NNC(=O)c2n[nH]c3c2CCC3)cc(OC)c1OC
→ -4 | -1
> CCCNCc1cccc(-c2ccc(C(N)=O)cc2)c1
→ -8 | -11

# Additional compounds follow:
# Below each compound: NPYLR7 ag | NPYLR7 ag max-min
> O=C(C1CCCN(C2CCN(Cc3ccncc3)CC2)C1)N1CCCOCC1 (stereo not drawn)
→ 3 | -5
> N#CC1C(=N)OC2=C(C(=O)CCC2)C1c1cccc([N+](=O)[O-])c1 (stereo not drawn)
→ -16 | -22
> COc1ccc(N2CCN(C(=O)C3CCC3)C(C)C2=O)c(OC)c1 (stereo not drawn)
→ -8 | 2
> Brc1c(CSc2nc3ccccc3[nH]2)nc2ncccn12
→ -11 | -18
> O=C1NCC2CN(S(=O)(=O)c3ccccc3OC(F)F)CCN12 (stereo not drawn)
→ 2 | -1
> CCNC(=O)c1ccc(N2CCN(C3CCOCC3)CC2)nc1
→ 15 | 2
> COc1cc(NC(=O)N2CCN(c3nc(C(C)C)nc4sc(C)c(C)c34)CC2)cc(OC)c1
→ -8 | 4
> Cc1cccc2nc(C(=O)N(C)Cc3noc(C4CCC4)n3)c(F)n12
→ 4 | 0
> Cc1cccc(CC(=O)NS(=O)(=O)c2cccc(-c3nnco3)c2)c1
→ 2 | 1
> CSc1ccccc1OCc1cc(C(=O)N2CCC(Oc3cccnc3)CC2)no1
→ -2 | -2
> CCCOCCCNC(=O)c1cc(N2CCCC(C)C2)nc2ccccc12 (stereo not drawn)
→ -2 | -3
> COc1cc(Cl)ccc1C(=O)NC(C)C(=O)NC1CCCC1 (stereo not drawn)
→ 8 | 4
> CC(=O)Nc1ccc(C(=O)C(C)N(C)Cc2ccc3c(c2)OCCO3)cc1 (stereo not drawn)
→ 6 | 4
> CCn1c(C2CCN(C(=O)Cc3nonc3C)CC2)nn(C)c1=O
→ 2 | 0
> CC1CCc2ccccc2N1C(=O)CSc1nncn1-c1ccccc1 (stereo not drawn)
→ -3 | -5
> Cn1c2c(cc(-c3ccccc3Cl)c1=O)CN(C1CCSC1)CC2 (stereo not drawn)
→ 0 | -5
> COCC(=O)N1CCC(=O)N(CC(C)(C)O)C[C@H]2COc3cc(OC)ccc3[C@H]21
→ 3 | 13
> O=[N+]([O-])c1cc(C(F)(F)F)ccc1NNC(=S)NC1CC2CCC1C2 (stereo not drawn)
→ -1 | -9
> O=C(NCc1ccccc1F)C(C1CCCC1)N1CCN(C(=O)c2ccc(C(F)(F)F)cc2)CC1 (stereo not drawn)
→ 0 | 7
> CN1C(=O)c2ccc(NC(=O)COc3ccc(C(C)(C)C)cc3)cc2C1=O
→ 11 | 16
> COc1cc(OC)cc(N2C(=O)c3ccccc3NC23CCN(C(=O)c2ccc(F)cc2F)CC3)c1
→ 0 | -1
> Cc1cn2c3c(=O)n(CCC(C)C)c(=O)n(C)c3nc2n1C
→ 20 | 7
> C=CCCC(=O)N1CCC(n2c(CCC)nc3cccnc32)CC1
→ 9 | 3
> O=C(CCN1C(=O)c2ccccc2C1=O)N1CCOCC1
→ 3 | -2
> Cc1nc(C(C)NC(=O)c2cc(COc3cc(C)c(Cl)c(C)c3)on2)cs1 (stereo not drawn)
→ -1 | -6
> COC(=O)Cc1cc(OC(=O)c2ccc(Cl)cc2)n(C(C)(C)C)n1
→ 0 | 2
> CCC(=O)Nc1ccc(OCC(=O)NCc2cnc(C)cn2)cc1
→ 7 | 4

# Some of the entries so far, as tab-separated lines:
SMILES	NPYLR7 ag	NPYLR7 ag max-min
c1cc(C2CCCC2)nc(NCCC2CCOC2)n1 (stereo not drawn)	8	6
O=C(O)c1c[nH]c2ccccc2c1=O	-4	-6
CN(C)c1ccc(N)cc1CN(C(=O)c1ccccc1Cl)C1CC1	-2	-4
Cc1ccc2oc(-c3cc(NC(=O)c4cccs4)ccc3Cl)nc2c1	-1	13

# Assay outcomes: PubChem BioAssay, Fisher Drug Discovery Resource Center
